Bioassay records: PubChem BioAssay, several laboratories
eIF4H FP inh: inhibitors of RNA binding by human eIF4H. Q15056. eIF4H fluorescence polarization binding assay. inhibition, % at 35 µM. 290,000 compounds, 0.94% hits;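 active means 50% or more with normal probe brightness, or confirmed in later tests; inconclusive means above 50% with abnormal brightness, or retests that disagree; inactive means below 50% or failed in later tests; about a fifth of its hits are not listed in these tables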;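 further: calls also rest on retests at 20 µM and on dose response follow-up; 0% = protein and probe with vehicle and 100% = probe without protein; strong numbers were not always called active; many hits fall short of the cut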
UUG fidelity: modulators of start codon recognition fidelity in yeast; S. cerevisiae UUG-firefly luciferase reporter, luminescence/redox ratio; activity score, % at 18.7 µM; 350,000 compounds, 0.13% hits;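 active means replicate mean at a twofold rise or more, about +100% in these data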;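 further: firefly luciferase made from a UUG start codon reports start codon fidelity; reporter light over untreated wells divided by growth signal over untreated wells; some hits fall short of that in this replicate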
MT1-MMP act inh: MT1-MMP (human) activation inhibition | GFP/RFP ratio change, % at 20 µM | P50281 | 360,000 compounds, 0.061% hits | AID 651647 | HT1080 RFP-PRO-GFP cells, GFP/RFP ratio fluorescence, overnight; percent of plate control window, DMSO zero;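 active means GFP/RFP ratio change of at least 30% with cell ATP level not reduced by more than half and red fluorescence within 50% of control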; further: strong numbers were not always called active
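system = RFP-PRO-GFP reporter HT1080 cells | dosing = 20 µM single dose, 1% DMSO | timing = overnight cell settling, then overnight compound exposure, 37 °C, 5% CO2 | read-out basis = GFP/RFP fluorescence ratio | controls = DMSO and RFP-L50D-GFP cell wells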
CSC inhib: blocks cancer stem cells | cancer stem cell-like cells viability, luminescence | 300,000 compounds, 1.1% hits | AID 2717 | inhibition, % at 7.5 µM;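 active means mean at 75% or more and at least half the replicates too; inconclusive means mean and replicates disagree; tested in HMLE shEcad cells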;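 further: 0% = median of negative and 100% = median of positive control wells; the first replicate is given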
Rce1 inh: yeast Ras-converting enzyme inhibition | yeast membranes, quenched prenylated peptide cleavage fluorescence | calls only | 290,000 compounds, 0.27% hits | Q03530;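 active means fall in fluorescence gain of 50% or more versus controls, with final raw signal at or below 3038400; inconclusive means same 50% fall but final raw signal above 3038400; inactive means fall in fluorescence gain under 50%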;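 further: plate controls were neutral control wells for no effect and wells lacking membranes for full effect; tested at 10 µM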
Target sequence (Q03530 whole entry, looked up): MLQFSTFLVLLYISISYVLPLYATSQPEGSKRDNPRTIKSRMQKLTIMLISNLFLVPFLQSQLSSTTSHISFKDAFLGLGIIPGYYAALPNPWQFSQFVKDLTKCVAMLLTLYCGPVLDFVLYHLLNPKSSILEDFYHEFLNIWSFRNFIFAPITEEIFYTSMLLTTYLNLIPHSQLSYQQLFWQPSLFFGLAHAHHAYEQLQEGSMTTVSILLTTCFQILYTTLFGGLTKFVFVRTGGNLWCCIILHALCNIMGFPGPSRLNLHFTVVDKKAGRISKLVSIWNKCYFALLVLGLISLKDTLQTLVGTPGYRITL
HIV Env fusion: inhibitors of HIV Env-mediated cell fusion; AID 651610; 360,000 compounds, 1.1% hits; inhibition, % at 12.3 µM; HeLa-JRFL Env/CEM21 cell fusion, luciferase;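 active means mean replicate inhibition score of at least 50 and every replicate individually at or above 50; inconclusive means only one of the two criteria met; inactive means mean below 50 and not all replicates reaching 50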;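 further: 0% = plate neutral controls and 100% = maraviroc near 300 nM; one replicate is shown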
PABP FP inh: PABP-poly(A) binding inhibition | P11940 | PABP-poly(A) RNA binding, fluorescence polarization | inhibition, % at 35 µM | 290,000 compounds, 1% hits | AID 2014;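 active means 50% or more with normal probe brightness, or confirmed in later tests; inconclusive means above 50% with abnormal brightness, or retests that disagree; inactive means below 50% or failed in later tests; about a fifth of its hits are not listed in these tables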;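 further: calls also rest on retests at 20 µM and on dose response follow-up; controls were probe without protein and protein plus probe with vehicle; some compounds called inactive have numbers as strong as hits; many hits fall short of the cut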
Target sequence (P11940 whole entry, looked up): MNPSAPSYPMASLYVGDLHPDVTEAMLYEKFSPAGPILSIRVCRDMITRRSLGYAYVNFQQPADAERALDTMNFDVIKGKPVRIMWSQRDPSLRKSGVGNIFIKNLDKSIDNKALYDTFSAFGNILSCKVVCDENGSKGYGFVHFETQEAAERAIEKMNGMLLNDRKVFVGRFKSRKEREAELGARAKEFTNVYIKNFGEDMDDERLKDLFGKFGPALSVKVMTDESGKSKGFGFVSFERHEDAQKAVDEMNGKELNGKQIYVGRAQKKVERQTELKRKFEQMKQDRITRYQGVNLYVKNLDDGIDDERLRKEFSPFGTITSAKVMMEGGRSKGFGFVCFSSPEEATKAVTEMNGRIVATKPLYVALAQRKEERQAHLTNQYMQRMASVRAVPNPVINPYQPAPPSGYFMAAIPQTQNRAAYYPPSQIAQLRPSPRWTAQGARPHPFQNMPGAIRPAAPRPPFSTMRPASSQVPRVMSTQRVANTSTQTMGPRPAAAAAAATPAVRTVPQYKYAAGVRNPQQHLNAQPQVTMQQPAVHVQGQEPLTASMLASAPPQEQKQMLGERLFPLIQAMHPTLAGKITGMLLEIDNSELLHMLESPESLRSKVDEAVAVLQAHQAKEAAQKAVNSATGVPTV
eIF4H FP inh retest: recorded beside eIF4H FP inh, whose call it bears; inhibition, %; compound at 20 µM; confirmation average;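 mean of two retest wells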
PABP FP inh retest: also measured in PABP FP inh; calls as there; inhibition, %; compound at 20 µM; confirmation repeats;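 mean of two retest wells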
MT1-MMP act inh RFP: further read-out of MT1-MMP act inh, marked with its call; RFP signal change, %; measured here: RFP expression control read;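 0 = vehicle wells; hits needed this value within 50% of zero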
* hit, by the source's call; i = inactive; ? = inconclusive; nt = not tested or not shown; & = joins results of further samples.

SMILES	eIF4H FP inh	UUG fidelity	MT1-MMP act inh	MT1-MMP act inh RFP	CSC inhib	Rce1 inh	HIV Env fusion	PABP FP inh	others
OC(CN1C2=NCCN2c2ccccc21)c1ccc2c(c1)OCO2 (stereo not drawn)	-3	nt	-22	-9	-8	i	nt	0
CCSC1=N/C(=C\c2ccc(C(=O)O)cc2)C(=O)S1	2	-19	11	10	-13	i	-28	22
Cc1ccnc(NS(=O)(=O)c2ccc(NC(=O)c3ccc(S(=O)(=O)N4CC(C)OC(C)C4)cc3)cc2)n1 (stereo not drawn)	-7	nt	-1	2	-5	i	2	0
O=c1c2ccccc2c(/C=N/NS(=O)(=O)c2ccccc2)c(O)n1-c1ccccn1	?	nt	-112	2	0	nt	19	6
CN(C)S(=O)(=O)c1ccc(S(=O)(=O)N2CCCC(C(=O)NC3CCCC3)C2)cc1 (stereo not drawn)	-8	-15	-1	-21	10	i	28	0
OC(CCc1ccncc1)c1ccccc1 (stereo not drawn)	nt	-2	5	5	-1	i	1	nt
CC(C)(C)[C@@H]1C=C(C(=O)NC2CC2)O[C@H](OCc2ccc(CO)cc2)C1	-4	-13	9	-3	-8	i	-30	-1
C=CCN1C(=O)CSC1=Nc1ccc(NC(C)=O)cc1	-15	-10	-1	0	-17	i	10	-4
Cc1oc(-c2cccs2)nc1CN1CCC(CO)(CCOc2ccccc2)CC1	0	nt	-10	-5	8	i	30	-8
Cc1cc(C)cc(NC(=O)Cc2ccc(-n3cccc3)cc2)c1	-8	-2	-1	6	18	i	7	-6
O=C(CN(C(=O)c1csnn1)c1cccc2c1CCCC2)NCc1ccc(F)cc1	-5	3	-2	-1	-9	i	37	-1
O=C(CNc1ccc(Cl)c(C(F)(F)F)c1)N1CCN(S(=O)(=O)c2ccccc2)CC1	nt	-21	4	-1	nt	nt	17	nt
CC1CN(c2ccc(Cl)cc2[N+](=O)[O-])CCN1S(C)(=O)=O (stereo not drawn)	-4	nt	5	2	-15	i	5	-13
Cc1ccc(S(=O)(=O)NC2CCCC2)cc1C(N)=O	-5	-15	-1	0	4	i	12	0
Nc1cc(N)nc(SCCOc2ccccc2F)n1	7	-5	2	4	nt	i	-111	-6
Cc1cc(C)c2c(CC(=O)Nc3nccs3)coc2c1	-8	-12	-1	-1	-6	i	nt	-6
CCOc1cc2[nH]c(=S)n(Cc3ccc(C(=O)NCCN(CC)CC)cc3)c(=O)c2cc1OCC	-8	-22	5	0	nt	i	-2	-31
O=C(O)c1ccc(Cl)c(S(=O)(=O)Nc2ccc3cn[nH]c3c2)c1	23	nt	0	5	-11	i	4	1
CCc1nc(Cl)c(C#N)c2c1CCCC2	-4	-14	-7	-4	2	nt	38	13
CC1=C(C(=O)OCC2CCCO2)C(c2ccsc2)C2=C(CCCC2=O)N1 (stereo not drawn)	1	1	-4	-2	0	i	10	?
CCOC(=O)C(=O)N(Nc1ccc(C)cc1)c1ccc(C)cc1	2	nt	-1	-3	-7	i	-30	7
COP(=O)(OC)c1nc(-c2ccccc2)oc1N1CCOCC1	-2	nt	5	5	0	?	6	-2
Cc1nc2nc(CC(=O)O)[nH]n2c(=O)c1[N+](=O)[O-]	8	nt	-1	2	-4	i	4	11
Cc1ccc(N2C(=O)Nc3ccccc3C2(O)C(=O)NCCCOC(C)C)cc1C (stereo not drawn)	-5	11	2	4	-8	i	6	-5

Grouped by structure: those above with a Cl atom (4)
SMILES	eIF4H FP inh	UUG fidelity	MT1-MMP act inh	MT1-MMP act inh RFP	CSC inhib	Rce1 inh	HIV Env fusion	PABP FP inh	others
O=C(CNc1ccc(Cl)c(C(F)(F)F)c1)N1CCN(S(=O)(=O)c2ccccc2)CC1	nt	-21	4	-1	nt	nt	17	nt
CC1CN(c2ccc(Cl)cc2[N+](=O)[O-])CCN1S(C)(=O)=O (stereo not drawn)	-4	nt	5	2	-15	i	5	-13
O=C(O)c1ccc(Cl)c(S(=O)(=O)Nc2ccc3cn[nH]c3c2)c1	23	nt	0	5	-11	i	4	1
CCc1nc(Cl)c(C#N)c2c1CCCC2	-4	-14	-7	-4	2	nt	38	13

Next part:
SMILES	eIF4H FP inh	UUG fidelity	MT1-MMP act inh	MT1-MMP act inh RFP	CSC inhib	Rce1 inh	HIV Env fusion	PABP FP inh	others
CCCNC(=O)COc1coc(CN2CCN(c3ccccc3)CC2)cc1=O	-3	-11	0	1	-8	i	-1	-16
CCOC(=O)c1cnc2c(c(C3CC3)nn2C)c1N1CCOCC1	8	0	0	2	-26	i	11	0
O=C(COC(=O)[C@H](Cc1ccccc1)NC(=O)c1cccs1)Nc1ccccc1C(F)(F)F	-8	nt	4	5	-9	i	-4	-5
O=C(Nc1c(C(=O)Nc2ccccc2)cnn1-c1ccccc1)c1ccco1	5	2	5	1	-10	nt	nt	7
CC(Oc1ccccc1)C(=O)N=C1SC2CS(=O)(=O)CC2N1c1ccccc1 (stereo not drawn)	-4	-10	-4	3	0	i	14	5
CC(NS(=O)(=O)c1ccccc1Cl)C1CC2CCC1C2 (stereo not drawn)	35	-6	-1	-4	1	nt	-2	-5
CCOC(=O)c1sc2nc(C)[nH]c(=O)c2c1C	-3	nt	4	7	9	i	8	6
COc1ccccc1C(=O)N(C)c1nnc(-c2ccccc2)s1	4	6	0	-2	-7	i	-7	12
COc1ccc(/C=C/C(=O)Nc2ccc3c(c2)OCCO3)cc1OC	-7	5	5	-1	9	i	nt	-4
COc1ccc(S(=O)(=O)c2ccc(OC)cc2)cc1	-1	-22	1	2	-4	i	-62	4
CC1CC(NC(=O)CC#N)CC(C)(C)C1 (stereo not drawn)	-10	nt	4	5	-6	i	10	0
O=C(NCc1ccc2[nH]c3c(c2c1)CCCC3)c1ccc(S(=O)(=O)N2CCCC2)cc1	20	-17	0	0	-1	i	-82	-7
COc1cccc(CN(C)C(=O)c2cccc(S(=O)(=O)N3CCN(c4ccccc4)CC3)c2)c1	nt	-18	3	-17	nt	nt	25	nt
Nc1ccccc1O	nt	-23	1	9	24	nt	nt	nt
Cc1cccc(N2CCN(C(=O)/C=C/c3ccco3)CC2)c1C	57*	nt	-3	8	17	i	17	-11*	eIF4H FP inh retest=101*;PABP FP inh retest=97*
Cc1cc(C)n(CCN(C)Cc2nc(Cc3ccccc3F)no2)n1	-2	nt	-4	3	-6	i	2	-3
O=C(O)CCc1ccc(-c2ccccc2)n1CC(=O)O	1	-22	-5	4	-13	i	-24	13
O=C(NCC1CCN(S(=O)(=O)c2ccccc2)CC1)Nc1ccc(F)cc1	5	nt	0	-3	1	i	5	13
COc1cccc(C2OC(=O)c3ccccc3N2C(C)=O)c1OC(C)=O (stereo not drawn)	-5	-23	7	1	-12	i	nt	4
CC(C)(C)S(=O)(=O)N1C[C@H]2C(=CC[C@@H]3C(=O)N(c4ccccc4)C(=O)[C@@H]32)[C@H]1CCO	nt	-16	2	8	nt	nt	-11	nt
O=C(Nc1cc(C(F)(F)F)ccc1N1CCOCC1)c1ccc(Br)o1	-9	1	0	-7	16	i	nt	-13
CC(=O)Nc1ccc(NC(=O)C(C)OC(=O)C23CC4CC(CC(Cl)(C4)C2)C3)cc1 (stereo not drawn)	nt	12	4	2	-3	nt	nt	nt
Cc1ccc(S(=O)(=O)N(C)CC(=O)Nc2cccc(C)n2)cc1	-2	0	-2	0	-17	i	-42	-4
S=c1nc(-c2cc(Cl)ccc2Cl)[nH][nH]1	11	-23	10	4	19	i	-5	0

Three records drawn at random from the list so far, as already listed:
SMILES	eIF4H FP inh	UUG fidelity	MT1-MMP act inh	MT1-MMP act inh RFP	CSC inhib	Rce1 inh	HIV Env fusion	PABP FP inh	others
Cc1ccc(S(=O)(=O)N(C)CC(=O)Nc2cccc(C)n2)cc1	-2	0	-2	0	-17	i	-42	-4
O=C(O)CCc1ccc(-c2ccccc2)n1CC(=O)O	1	-22	-5	4	-13	i	-24	13
COc1cccc(C2OC(=O)c3ccccc3N2C(C)=O)c1OC(C)=O (stereo not drawn)	-5	-23	7	1	-12	i	nt	4

Continuation.
SMILES	eIF4H FP inh	UUG fidelity	MT1-MMP act inh	MT1-MMP act inh RFP	CSC inhib	Rce1 inh	HIV Env fusion	PABP FP inh	others
CCCCNc1cc(C)oc(=O)c1C(C)=O	-1	-9	6	0	-9	i	-5	-2
Cc1ccc(C(=O)Nc2ccc3c(c2)OCCO3)o1	-9	-34	-5	-4	24	i	nt	-7
CCO[C@@H]1OC(C(=O)Nc2ccccc2)=C[C@H](c2csc3ccccc23)[C@H]1CCCO	-3	-11	8	-3	2	i	12	14
Cn1c(CN2CCCC2)nc2cc(NC(=O)c3ccco3)ccc21	-11	-28	1	1	14	i	nt	0
COc1cc2[nH]c(=S)n(C3CCN(Cc4ccccc4)CC3)c(=O)c2cc1OC	-2	-16	-1	0	6	i	16	-3
CCOc1ccc(OCCC(=O)N(CC)CC(=O)Nc2c(F)cccc2F)cc1	nt	7	0	2	nt	nt	-1	nt
CCCCNc1c(-c2ccc(-c3cccc(Cl)c3)cc2)nc2ccccn12	nt	-16	8&9	-19&-6	97*	i	-32&-49	nt
COc1ccc(C(=O)Oc2ccc(Br)cc2C(=S)N2CCOCC2)cc1	2	-10	0	0	nt	i	6	-9
COc1ccc(/C(=N\O)c2nccc3cc(OC)c(OC)cc23)cc1OC	1	-10	3	3	-16	i	18	?
O=S(=O)(NCCOCC(F)(F)C(F)F)c1ccc2oc3ccccc3c2c1	-10	-1	-4	-9	0	i	?	-7
COc1ccccc1CNC(=O)C1CCN(C(=O)c2sccc2-n2cccc2)CC1	-14	-9	-1	0	-4	i	-3	-1
Cc1csc(NC(=O)c2ccc(Cn3nc(C)c(Br)c3C)o2)n1	-3	-32	3	-24	51	i	8	-3
CC1CC(C)CN(S(=O)(=O)N2CCC(C(=O)NCc3ccco3)CC2)C1 (stereo not drawn)	-8	nt	0	2	-2	i	-3	4
COc1ccccc1-c1cc2nc(NCCc3ccncc3)ccn2n1	nt	-19	-8	1	nt	nt	24	nt
CN1C(=S)SC(/[N+]([O-])=C\c2ccccc2F)C1(C)C (stereo not drawn)	0	nt	0	2	10	i	1	18

Some of the compounds tested; rates above refer to the full screens.
